Six1-Eya2 inh = blocks human Six1 binding to Eya2; activity change, % (concentration not given with the values); 360,000 compounds, 0.56% hits; Q15475+O00167; AID 651725; AlphaScreen GST-Six1/His-Eya2 binding, biochemical; hits give low values; control for the full effect not named in the record; in the data active = activity change below about -65%; inconclusive = about -30% to -65%; inactive = above about -30%; further: on the % scale 0 is the no-effect control and ±100 the full control effect
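AlphaScreen luminescence read after one hour at 37 °C in darkness. Pin-transferred compounds met GST-Six1 and His-Eya2 protein (5X stock 250 nM/500 nM) plus glutathione donor and Ni-chelate acceptor beads (5X, 50 ug/mL).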
TRPML1 inh = blocks the human TRPML1 channel | 390,000 compounds, 0.02% hits | Q9GZU1 | AID 624415 | TRPML1-inducible cells, Ca2+ dye fluorescence, FDSS; hits give low values; inhibition of EC80 agonist-evoked calcium signal | activity change, negative = inhibition, % (test concentration not listed); in the data active means activity change below about -50%; inconclusive means about -30% to -50%; inactive means above about -30%;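 further: stimulus is agonist 54-4 at its EC80 concentration; on the % scale 0 is the no-effect control and ±100 the full control effect; compound concentration not given in the record; the text of the record puts the active cut at -80%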
Target sequence (Q9GZU1 whole entry, looked up): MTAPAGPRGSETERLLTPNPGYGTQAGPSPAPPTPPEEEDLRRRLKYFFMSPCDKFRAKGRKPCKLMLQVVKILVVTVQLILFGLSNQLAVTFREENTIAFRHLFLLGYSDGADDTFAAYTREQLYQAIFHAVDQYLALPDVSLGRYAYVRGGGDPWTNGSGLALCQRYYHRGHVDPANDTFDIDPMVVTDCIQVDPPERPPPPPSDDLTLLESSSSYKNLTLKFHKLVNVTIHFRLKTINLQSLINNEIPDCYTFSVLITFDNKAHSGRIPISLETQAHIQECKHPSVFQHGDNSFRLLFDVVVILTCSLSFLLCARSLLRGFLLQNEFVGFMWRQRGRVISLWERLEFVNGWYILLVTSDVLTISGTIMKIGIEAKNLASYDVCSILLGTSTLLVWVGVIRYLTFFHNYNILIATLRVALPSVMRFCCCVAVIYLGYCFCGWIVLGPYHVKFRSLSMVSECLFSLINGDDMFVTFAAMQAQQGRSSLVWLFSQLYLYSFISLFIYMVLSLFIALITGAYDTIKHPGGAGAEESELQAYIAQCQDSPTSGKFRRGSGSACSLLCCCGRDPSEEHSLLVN
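Tet-induced TRPML1-DL cells loaded with Ca8 no-wash calcium dye were read kinetically on FDSS. Compound addition was followed by EC80 agonist 54-4 (4 uM final); inhibition was read over 110 s.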
TRPML1 agonist = activates the human TRPML1 channel | TRPML1-expressing cells, Ca2+ dye fluorescence, FDSS; host cell line not named in the record; reference of the full effect not given here | activation, % (concentration not given with the values) | 410,000 compounds, 0.12% hits | AID 624414; in the data active = activation above about 50%; inconclusive = about 30% to 50%; inactive = below about 30%; further: 0% is about no effect; the text of the record puts the active cut at 80%
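Tetracycline-induced TRPML1-DL cells are seeded and incubated overnight before loading with a no-wash Ca2+ dye and quencher. Agonist activity is taken from the 110 s fluorescence read following compound pin-transfer on an FDSS, before EC80 54-4 challenge.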
CtBP-E1A blk = blocks the CtBP interaction with E1A; 340,000 compounds, 0.49% hits; AlphaScreen GST-E1A/His-CtBP binding, 1536-well; hits give low values; control for the full effect not named in the record; AID 651724; activity change, % (test concentration not listed); in the data active means activity change below about -65%; inconclusive means about -30% to -65%; inactive means above about -30%; further: on the % scale 0 is the no-effect control and ±100 the full control effect
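Homogeneous bead-based format: GST-tagged E1A captured on glutathione donor beads, His-tagged CtBP on nickel acceptor beads; compounds precede bead addition by 2 h at 37 °C.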
D2 ag = activates the human D2 dopamine receptor | P14416 | activation, % (no concentration beside the values) | DiscoveRx PathHunter D2 beta-arrestin, luminescence, 90 min; 100% = 57 uM dopamine signal | 360,000 compounds, 0.084% hits; in the data active = activation above about 40%; inconclusive = about 15% to 40%; inactive = below about 15%; further: compound concentration not given in the record; the text of the record calls up to 30% inactive
Target sequence (P14416 whole entry, looked up): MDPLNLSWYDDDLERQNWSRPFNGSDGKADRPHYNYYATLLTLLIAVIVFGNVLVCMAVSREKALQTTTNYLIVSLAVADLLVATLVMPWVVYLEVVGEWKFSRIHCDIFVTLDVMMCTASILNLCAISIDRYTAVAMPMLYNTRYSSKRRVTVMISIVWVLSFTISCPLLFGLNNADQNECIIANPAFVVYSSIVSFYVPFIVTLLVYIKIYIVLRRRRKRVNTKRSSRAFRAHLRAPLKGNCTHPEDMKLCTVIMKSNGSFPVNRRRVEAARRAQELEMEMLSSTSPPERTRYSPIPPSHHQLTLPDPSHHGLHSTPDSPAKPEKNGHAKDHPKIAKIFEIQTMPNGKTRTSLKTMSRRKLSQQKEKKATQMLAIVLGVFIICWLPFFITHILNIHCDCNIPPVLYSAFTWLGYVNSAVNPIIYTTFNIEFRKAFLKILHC
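DiscoveRx PathHunter D2 beta-arrestin cells (2,100/well) attached overnight, then compound-stimulated 90 min at 37 C in HBSS/10 mM HEPES/0.1% Tween-20 buffer; beta-galactosidase complementation read by luminescence after 1 h at ambient temperature. Dopamine 57 uM final (EC100) as control.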
PINK1 modulator = changes PINK1 expression | PINK1 immunofluorescence, high-content cytometry, 24 h | Potency, µM (top dose mostly 76.6 µM), without a hit: at the highest dose activation (PINK1 increase), actives largely listed as activators | 410,000 compounds, 0.2% hits; active = well fitted activation curve with a large enough effect; inconclusive = small, poorly fitted or top-dose-only effect; inactive = flat fitted curve, though single readings scatter; cell line not stated here;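 further: potency means the concentration at half of the fitted maximal effect; % of control where 0% means no effect; nearly all actives have a fitted effect of over 65% in size; a mitochondrial uncoupler was the plate control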
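Decision-based qHTS: stable cells, 24 h exposure to five compound concentrations, CCCP as control. Fixed cells stained for PINK1 plus nuclear, mitochondrial and cell markers, cytometer read.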
An asterisk follows results filed as active; u = inconclusive; x = no result given; [ ] = remark or other dose. An unsorted share of the library; 1% or so of the library scored in one or more.

Molecule,CtBP-E1A blk,TRPML1 inh,Six1-Eya2 inh,D2 ag,PINK1 modulator,TRPML1 agonist
CSc1ccc(COC(=O)c2cc([N+](=O)[O-])ccc2N2CCOCC2)cc1,4,-6,-24,-3.5,4.7%,-0.2
CCC1Cc2[nH]c(=S)[nH]c(=O)c2C(c2ccc(Cl)cc2)O1 (stereo not drawn),0,-1,14,-3.6,1.1%,1.4
CCCc1nc2ccc(C(=O)OC)cn2c1Cc1ccccc1,24,x,17,-4.1,2.6%,-0.6
Nc1c(N(CCC2=CCCCC2)C(=O)COc2ccc(F)cc2)c(=O)[nH]c(=O)n1Cc1ccccc1,5,0,-1,0.2,0.9%,2.2
Cc1ccc(/C=C2\CCn3c2nc2cc(C(=O)O)ccc2c3=O)c(C)c1,-2,-7,-2,-3.3,-1.1%,0.3
C=CCNC(=O)NC(=O)COC(=O)CCCSc1nc2ccccc2[nH]1,-2,-15,1,-2.4,0.9%[38.3 µM],0.5
CCOC(=O)N1CCN(c2cc(=O)n(-c3ccccc3C)c(=O)[nH]2)CC1,x,27,4,-8.0,2.6%,0.2
NC(Cc1ccc(F)cc1)c1csc(Nc2ccc(S(N)(=O)=O)cc2)n1 (stereo not drawn),-11,x,-9,7.4,0.1%,-0.2
CCCN1C=CC(=C2C(=O)c3ccccc3C2=O)C=C1,-3,-8,-5,-1.9,22%[38.3 µM],-0.7
CCc1cccc(C)c1NC(=S)N(CCN(C)C)C(C)c1cccnc1 (stereo not drawn),-4,26,-15,-3.5,2.3%,0.5

(list continues)
Molecule,CtBP-E1A blk,TRPML1 inh,Six1-Eya2 inh,D2 ag,PINK1 modulator,TRPML1 agonist
Cc1nc2ccn(Cc3cccnc3)c(=O)c2cc1C(=O)N1CCN(c2ccccc2F)CC1,x,-8,x,x,-1.8%,0.1
O=C(COC(=O)Cc1cccc(F)c1)NC(=O)NC1CCCCC1,0,-17,1,-2.1,6.0%,-0.6
OCC[C@H]1C[C@@H](O)[C@H](O)[C@]2(CCc3ccccc3O2)O1,4,12,1,-0.5,0.8%,-0.8
Nc1ccc(NC(=O)NC2CCCCC2)cc1,0,0,19,-0.3,0.4%,-0.8
Cc1ccc(/C=C/c2ccc3cccc(O)c3n2)s1,-3,1,-8,-7.9,7.3%,0.8
COc1ccc(-c2nnc(SCC(=O)Nc3cc(C)on3)o2)cc1,u,5,-27,-6.0,0.4%,0.1
COc1cc(C(=O)Nc2nnc(C(C)(C)C)s2)c([N+](=O)[O-])cc1OC,4,-6,-3,-1.1,2.2%,0.7
O=C(CN(C(=O)c1nsc(Cl)c1Cl)c1ccc(F)cc1)NC1CCCC1,1,-16,-1,-1.4,0.8%,-0.4
COc1ccc(NC(=O)Cn2cc(C(=O)c3ccncc3)c(=O)c3cc(C)ccc32)cc1Cl,x,-10,x,x,1.7%,2.1
CC(=O)C1=C(c2ccc(Cl)cc2)N(C(C)=O)n2c(nnc2C2CCCCC2)S1,x,-12,x,x,0.3%,3.3

Other entries:
Molecule,CtBP-E1A blk,TRPML1 inh,Six1-Eya2 inh,D2 ag,PINK1 modulator,TRPML1 agonist
CCCn1c(SCC(=O)Nc2ccc(C(=O)Nc3ccccc3OC)cc2)n[nH]c1=O,-1,-3,5,0.9,1.4%,0.0
Cc1ccc(C(=O)NC(=C(Cl)Cl)S(=O)(=O)c2ccc(Cl)cc2)cc1,0,u,-11,-4.5,0.8%,0.4
Cc1cccc(N2CCN(C(=O)CN3C(=O)COc4ccc(S(=O)(=O)N5CCC(C)CC5)cc43)CC2)c1C,x,12,x,x,-0.7%,1.6
O=C(NCc1ccc2c(c1)OCO2)C1CCCN1C(=O)Nc1cccc(F)c1 (stereo not drawn),3,-9,5,-2.9,1.1%,1.1
S=C(NCCCN1CCOCC1)N(Cc1ccccc1)Cc1ccccc1,-6,1,-5,-5.1,-1.1%,0.3
COc1cccc(CNC(=O)[C@@H]2CCCN2C(=O)[C@H]2CCCCN2S(=O)(=O)c2ccc(OC)c(C)c2)c1,2,x,-9,x,0.0%,-1.0
Nc1nc2nc[nH]c2c(=O)[nH]1,4,0,5,0.9,0.0%,1.9
CC(C)(C)c1ccc(S(=O)(=O)N2CCN(C(=O)C3=COCCO3)CC2)cc1,0,-2,19,13,1.1%,0.8
Cc1ccc2ncnc(Nc3cccc(C(=O)O)c3)c2c1,0,-1,2,-1.5,2.0%,-0.4
Cc1ccc(C(=O)Nc2cccnc2)cc1Cl,-1,38,9,-1.3,0.0%,-0.2

Remaining list, next part:
Molecule,CtBP-E1A blk,TRPML1 inh,Six1-Eya2 inh,D2 ag,PINK1 modulator,TRPML1 agonist
C=CCNS(=O)(=O)c1nc(C)c(Cl)c(C)c1C#N,5,2,-1,-1.4,-4.0%[38.3 µM],-0.8
O=C(NCc1ccccc1)c1ccc(NC(=O)C2CCCCC2)cc1,3,-14,6,1.0,4.6%,-0.2
Cc1nc2ccc(C(=O)N3CCN(c4ccccc4)CC3)cn2c1N(C)C(=O)CCc1ccccc1,2,x,3,3.6,1.2%,-0.7
Cn1cnc2c(cnn2-c2ccccc2)c1=O,2,-8,1,0.5,0.1%,0.1
CCc1cccc(C)c1NC(=O)c1cccnc1,6,-7,1,-1.6,-0.7%,0.1
O=C(NC1CCN(Cc2ccccc2)CC1)c1ccc(S(=O)(=O)NCc2ccco2)cc1,-5,15,1,-2.9,-1.3%,0.9
C=CCn1c(SCC(=O)NCc2ccc3c(c2)OCO3)nnc1-c1cccnc1,-1,-25,3,-0.9,1.0%,1.6
Cc1cc(Nc2ccc(F)cc2Cl)n2ncnc2n1,2,23,5,1.4,0.9%,0.3
CC(NS(=O)(=O)c1cc2c3c(c1)CCC(=O)N3CCC2)c1ccccc1 (stereo not drawn),11,31,-1,1.1,1.3%,-0.7
Cc1ccccc1CNC(=O)Cc1ccccc1[N+](=O)[O-],-7,11,9,-4.2,1.1%,0.3

Further records
Molecule,CtBP-E1A blk,TRPML1 inh,Six1-Eya2 inh,D2 ag,PINK1 modulator,TRPML1 agonist
Cc1ccc(N2CC(C(=O)Nc3cccnc3)CC2=O)cc1Cl (stereo not drawn),4,-5,-5,-0.7,2.7%,-0.3
C/C(=N\NC(=O)c1ccc([N+](=O)[O-])cc1)c1cccc([N+](=O)[O-])c1,-8,13,-1,-0.2,-1.8%,1.9
Cc1onc(-c2ccccc2Cl)c1C(=O)N1CCN(Cc2ccc3c(c2)OCO3)CC1,-5,-8,-5,-3.7,0.0%,-0.1
C[C@H]1CN([C@@H](C)CO)C(=O)c2cc(-c3cccnc3)cnc2O[C@H]1CN(C)Cc1ccc(Oc2ccccc2)cc1,-3,x,-1,-0.4,-0.4%,x
O=C(NC1CCCCCC1)C(Cc1ccccc1)n1cccc1 (stereo not drawn),0,-9,-16,-1.1,2.0%,-0.2
O=C(c1nnc(-c2ccc(Cl)cc2)o1)C1CCCC1,0,-9,13,-0.5,2.3%,-1.2
CCn1cc(C(=O)O)c(=O)c2cc(F)c(N3CCN(C(=S)NC(=O)c4ccc(F)cc4)CC3)cc21,-3,-14,9,-1.1,-1.9%,-0.9
Cc1ccc(CN2CCN(C/C(Cl)=C/c3ccccc3)CC2CCO)o1 (stereo not drawn),x,-2,-5,1.6,3.6%,-0.7
Cc1nn(-c2ccccc2)c(C)c1/C=N/NC(=O)c1cc(-c2ccc(Cl)s2)[nH]n1,-4,-16,-17,-0.2,u,2.6
O=C1C=C(c2ccc(Cl)c(C(F)(F)F)c2)C[C@@H](c2ccc(Cl)cc2)C1,-1,-9,3,0.5,u,0.2

The final three compounds of the part above come first, to join the parts:
Molecule,CtBP-E1A blk,TRPML1 inh,Six1-Eya2 inh,D2 ag,PINK1 modulator,TRPML1 agonist
Cc1ccc(CN2CCN(C/C(Cl)=C/c3ccccc3)CC2CCO)o1 (stereo not drawn),x,-2,-5,1.6,3.6%,-0.7
Cc1nn(-c2ccccc2)c(C)c1/C=N/NC(=O)c1cc(-c2ccc(Cl)s2)[nH]n1,-4,-16,-17,-0.2,u,2.6
O=C1C=C(c2ccc(Cl)c(C(F)(F)F)c2)C[C@@H](c2ccc(Cl)cc2)C1,-1,-9,3,0.5,u,0.2
Cn1c(=O)c2c(nc(N3CCCCC3)n2C)n(C)c1=O,5,-12,5,1.1,1.0%,0.3
CCOC(=O)c1c(N)sc(C(=O)N2CCCCCC2)c1C,0,2,2,-3.6,-0.9%,0.0
CCCCNC(=O)CCNS(=O)(=O)c1ccc(C)cc1,6,-2,2,0.5,6.4%[38.3 µM],-0.4
CCc1c(C)[nH]n(-c2nc(-c3ccccc3)cs2)c1=O,x,5,3,2.9,-0.8%,-1.1
c1ccc2c(Nc3ccc(N4CCOCC4)cc3)nc(N3CCOCC3)nc2c1,-10,u,-12,-1.4,15%,2.8
COc1ccc(S(=O)(=O)N2CCN(C(=O)c3ccc(C)o3)CC2)cc1,14,6,-9,-0.3,0.2%,0.1
O=C(Cc1ccccn1)c1ccc(F)cc1,6,-9,1,-3.9,2.9%,-0.2
Cc1ccc2c(=O)cc(C(=O)Nc3nnc(C)s3)oc2c1,x,-5,x,x,2.1%,-0.9
c1ccc(-c2nnc3sc(Cc4cccs4)nn23)cc1,-6,12,-4,-0.4,-4.2%[38.3 µM],0.3
COc1cc(C(=O)Nc2ccccc2N2CCCCC2)cc(OC)c1OC,3,7,1,-2.1,1.6%,0.7

Further structures follow.
Molecule,CtBP-E1A blk,TRPML1 inh,Six1-Eya2 inh,D2 ag,PINK1 modulator,TRPML1 agonist
COc1ccc(NC(=S)NC(C)Cc2cccs2)cc1 (stereo not drawn),x,14,-5,-1.2,-1.0%,-1.4
Cc1ccc(-c2nc(CN3CCCCC3)cc(CN3CCCCC3)c2O)cc1,2,3,-2,-1.7,0.8%,-1.0
c1ccc(-n2nnnc2-c2cnc(-c3cccnc3)nc2-c2cccs2)cc1,-6,10,-5,-1.9,-1.6%,2.5
Cc1ccnc(N2C(=O)c3ccccc3C2Nc2cccc(C)c2C)c1 (stereo not drawn),4,39,-2,-1.7,3.5%,-0.5
CN=C(Nc1ccccc1)SC1CC(=O)N(c2cccc(OC)c2)C1=O (stereo not drawn),-5,7,-4,-4.0,2.1%,0.4
O=C(O)Cn1cc(/C=C2/SC(=O)N(CC(=O)N3CCCCCC3)C2=O)c2ccccc21,0,9,16,0.4,0.2%,1.0
